Source: PubChem (National Center for Advancing Translational Sciences (NCATS))
Sfp inh = qHTS Assay for Inhibitors of Bacillus subtilis Sfp phosphopantetheinyl transferase (PPTase) | Potency, µM, inactives show max response, negative = inhibition, most hits filed as inhibitors | Biochemical Sfp PPTase activity, qHTS | 4'-phosphopantetheinyl transferase ffp (Bacillus subtilis), Q9F4F7 | hit rate 3.5% among 310,000; active = well fitted inhibition curve with a large enough effect; inconclusive = small, poorly fitted or top-dose-only effect, or another doubt; inactive = no such curve, though single readings can be large or run the other way;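 note: the enzyme is Sfp with the accession as filed and its product quenches rhodamine fluorescence; potency is the fitted concentration of half-maximal effect; 0% = enzyme reaction without inhibitor and -100% = no enzyme wells; top concentration of the series not given in the record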
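With Hepes-Na pH 7.6 buffer containing 10 mM MgCl2, Sfp (15 nM) modified BHQ-2-YbbR (12.5 uM) using rhodamine-CoA (5 uM). Two reads 30 minutes apart at 525/598 nm yielded each well's rate.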
Menin MLL FP FL = qHTS Assay for Inhibitors Targeting the Menin-MLL Interaction in MLL Related Leukemias: Competition With Fluorescein Labeled MLL-derived Peptide; Fluorescence polarization, fluorescein-MLL peptide displacement from menin; 290,000 tested, under 10 active; FP activity change, % at 61.4 µM; AID 1766, 2009; inconclusive = falling polarisation curve, or a change in total fluorescence; inactive = total fluorescence flat and polarisation flat or rising; no compound was filed as active; the % refers to the polarisation; negative = inhibition;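 note: % of control where 0% means no effect; inhibitors lower the polarisation; unlabelled MLL peptide was the positive control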
Active calls of the source: *; ? = inconclusive; & = joins results of further samples; [ ] = remark or other dose. An excerpt; the hit share may differ from the screen's.

cpd	Sfp inh	Menin MLL FP FL	Structure
1	-8%	-3.1	CCC(=O)OC1(C)C(=O)C=C2C=C(CCCCNC(=O)OC(C)(C)C)OC=C2C1=O (stereo unspecified)
2	-19%	5.3	CCOc1ccccc1-c1nnc2n1N=C(c1c(OC)cccc1OC)CS2
3	-6%	-7.9	COc1ccccc1-c1cncnc1Nc1ccc(F)cc1
4	-13%	-0.1	COC(=O)C/C=C/[C@@H](C)[C@H](O)c1ccccc1Br
5	79µM*	-1.7	Cc1cccc(CNc2ccnc(-c3cccnc3)n2)c1
6	8%	-0.3[11.7 µM]	O=C1[C@H]2[C@H]3[C@H](O)[C@H](O)C/C(=N/OC[C@@H](O)COCc4ccco4)[C@H]3CC[C@@H]2C(=O)N1Cc1ccccc1
7	-13%	-2.0	CC1=CC[C@@]2(CO)COC(c3ccccc3O)C1C2 (stereo partly specified)
8	8%	-4.6	COc1ccccc1CNc1ncncc1-c1ccccc1CN(C)C
9	25µM*	1.7	COc1c(C2=CC(=O)N(C)C2=O)c2c(n1C)C(=O)c1ccccc1C2=O
10	7%	-2.5	CCOC(=O)C(C#N)=C(c1ccccc1)c1ccccc1
11	1%	-0.5[11.7 µM]	C=CCN1c2ccccc2[C@]23C[C@@H](C(=O)OC)N(S(=O)(=O)CCCC)C2=NC(C(=O)OC)=C(C(=O)OC)[C@H]13
12	-4%	3.5[11.7 µM]	CC1CCC(C(=O)O)NC1c1cccc(N2CCCC2=O)c1 (stereo unspecified)
13	13%	-11	CN1CCN(c2ncncc2-c2ccccc2Cl)CC1
14	?	?	CC(=O)[C@]1(O)Cc2c(O)c3c(c(O)c2[C@@H](O[C@H]2C[C@H](N)[C@H](O)[C@H](C)O2)C1)C(=O)c1c(O)cccc1C3=O
15	-16%	-22	CC1=C(CCC(=O)O)c2cc3nc(cc4[nH]c(cc5[nH]c(cc1n2)c(C)c5C(C)O)c(C)c4C(C)O)C(C)=C3CCC(=O)O (stereo unspecified)
16	27%	-0.9&0.5	OC[C@H]1O[C@@H](n2cnc3cncnc32)[C@H](O)[C@@H]1O
17	5%&12%&15%&-4%	6.5&0.8&-0.6	NCCCCN=C(N)N
18	8%	0.8[24.8 µM]	c1ccc2c3c([nH]c2c1)[C@@H]1[C@H]2CC[C@H]([C@H]4CCCN[C@H]42)N1CC3
19	-12%	-25	O=C(c1ccc(F)cc1)C1CCN(CCCCc2ccccc2)CC1
20	-13%	?	Cn1c(=O)cnc2cnc(Nc3ccccc3)nc21
21	18%	-1.3[11.7 µM]	C[C@H]1CC[C@H]2C(=O)N3[C@H](c4ccc(Br)cc4)[C@@H](C)CC[C@H]3C(=O)N2[C@@H]1c1ccc(Br)cc1
22	8%	-5.5	CSCC[C@H](NC(=O)[C@H](CC(C)C)NC(=O)[C@H](Cc1c[nH]c2ccccc12)NC(=O)[C@H](CCC(N)=O)NC(=O)[C@@H](NC(=O)[C@H](Cc1ccccc1)NC(=O)[C@H](CC(=O)O)NC(=O)[C@H](CCC(N)=O)NC(=O)[C@H](C)NC(=O)[C@H](CCCNC(=N)N)NC(=O)[C@H](CCCNC(=N)N)NC(=O)[C@H](CO)NC(=O)[C@H](CC(=O)O)NC(=O)[C@H](CC(C)C)NC(=O)[C@H](Cc1ccc(O)cc1)NC(=O)[C@H](CCCCN)NC(=O)[C@H](CO)NC(=O)[C@H](Cc1ccc(O)cc1)NC(=O)[C@H](CC(=O)O)NC(=O)[C@H](CO)NC(=O)[C@@H](NC(=O)[C@H](Cc1ccccc1)NC(=O)[C@@H](NC(=O)CNC(=O)[C@H](CCC(N)=O)NC(=O)[C@H](CO)NC(=O)[C@@H](N)Cc1cnc[nH]1)[C@@H](C)O)[C@@H](C)O)C(C)C)C(=O)N[C@@H](CC(N)=O)C(=O)N[C@H](C(=O)O)[C@@H](C)O
23	8%	1.1	O=C(O)c1ccc2c(c1)C(=O)N([C@]1(C(=O)O)C[C@H]1c1ccccc1)C2=O
24	14µM*	?	Cc1cccc(CNc2cc(-c3ccoc3)ncn2)c1
25	-11%	0.2	CC(C)C[C@@H](CC(=O)N[C@H](CC(=O)N[C@@H]1CCNC[C@H]1C(=O)N[C@H](CC(=O)N[C@@H](CCC(=O)O)CC(=O)O)CC(C)C)C(C)C)NC(=O)[C@@H]1CNCC[C@H]1N
26	15%	0.0[11.7 µM]	CO[C@@H]1COC(=O)CCC[C@@H](C)[C@H](OC)COC(=O)CCC[C@H]1C
27	3%	-0.5[11.7 µM]	CCCCC1=CC2=CC(=O)C(C)(OC(=O)CC)C(=O)C2=CN1c1ccncc1 (stereo unspecified)
28	0%	-12	CC(=O)OC1CCC2(C)C(=CCC3C2CCC2(C)C3C[C@@H]3O[C@]32C(C)=O)C1 (stereo partly specified)
29	9%	2.4	COC(=O)C(Cc1ccccc1)NC(=O)C(N)CC(=O)O (stereo unspecified)
30	1%	-0.7[11.7 µM]	C=CCN1c2ccccc2[C@]23C[C@@H](C(=O)OC)N(S(=O)(=O)c4ccc(C(F)(F)F)cc4)C2=NC(C(=O)OC)=C(C(=O)OC)[C@H]13
31	-19%	?	Cc1cccc(/C=C\c2ccccc2)n1
32	-5%	3.9	C/C(=C\CNc1ncnc2c1ncn2[C@@H]1O[C@H](CO)[C@@H](O)[C@H]1O)CO
33	-2%	0.0	CC1(C)OC2C(CO)OC(n3cnc4c(=O)[nH]c(N)nc43)C2O1 (stereo unspecified)
34	?	-7.1&-3.2	COc1ccc(C2CC(c3ccccc3)Oc3cc(OC)ccc32)cc1 (stereo unspecified)
35	12%	2.4	COC(=O)[C@@]1(Cc2ccc(OC)cc2)[C@H]2c3cc(C(=O)N(C)C)n(Cc4ccsc4Br)c3C[C@H]2CN1C(=O)c1ccccc1
36	14%	-0.5	COc1ccc(Oc2ncc3nc(-c4cccc(C#N)c4)c(=O)n(C)c3n2)cc1
37	13%	6.8	CC12CC3(O)OC(O1)C1(COC(=O)c4ccccc4)[C@@H]3CC21O[C@@H]1O[C@H](CO)[C@@H](O)[C@H](O)[C@H]1O
38	11%	-6.7	CCCN1CCC(=O)N(C(CSc2ccc(Br)cc2)c2ccccc2)CC1 (stereo unspecified)
39	11%	1.3	COc1ncc2nc(-c3ccc(F)cc3)c(=O)n(Cc3cccs3)c2n1
40	18%	-0.1	FC(F)(F)c1ccccc1-c1cc(NCCN2CCOCC2)ncn1

Entries of single compounds, looked up by structure:
Listed for COc1ccccc1-c1cncnc1Nc1ccc(F)cc1 → Sfp inh = -6%; Menin MLL FP FL = -7.9
Listed for O=C(O)c1ccc2c(c1)C(=O)N([C@]1(C(=O)O)C[C@H]1c1ccccc1)C2=O → Sfp inh = 8%; Menin MLL FP FL = 1.1

(continued)
cpd	Sfp inh	Menin MLL FP FL	Structure
41	-8%	-0.9[24.8 µM]	C[C@@H](CN(C)C)CN1c2ccccc2Sc2ccccc21
42	6%	1.5	CCCCC/C=C\C/C=C\C/C=C\CCCCCCC(=O)NCCc1ccc(O)c(O)c1
43	13%	-1.1	O=C(c1ccncc1)N1CCC2(CC1)CN(Cc1cc(C(F)(F)F)cc(C(F)(F)F)c1)C2
44	?	?	C[C@H](NC(=O)/C(C#N)=C/c1ccc(O)c(O)c1)c1ccccc1
45	-7%	2.4	CC(=O)N[C@@H](c1ccccc1)[C@]1(C)C[C@H]1[C@@H](C)C(=O)Nc1ccc2ccccc2c1
46	6%	0.6	COc1cccc(OC)c1C1=Nn2c(nnc2-c2ccccc2O)SC1
47	6%	1.7	CCCCC
48	9%	0.2	CC(C)NC(=O)N1CCCC2(CCN(C(=O)c3cccn3C)CC2)C1
49	9%	3.4	NC(CSCC(=O)O)C(=O)O (stereo unspecified)
50	24%	-0.3[11.7 µM]	CO[C@H]1COC(=O)[C@@H](CCSC)NC(=O)C/C=C\[C@@H](C)COC(=O)[C@@H](OCc2ccccc2)/C=C\[C@@H]1C
51	?	-0.6[94.6 µM]	Cc1ccc(C2CC(=O)Oc3ccc(O)cc32)cc1 (stereo unspecified)
52	8%	0.3	CC(=O)Nc1ccc(SCC(c2ccccc2)N2CCN(CCc3ccccc3)CCC2=O)cc1 (stereo unspecified)
53	-6%	0.7[11.7 µM]	CCc1cc2c(nc1CC)CCN(CC/C(C)=N/OCC[C@@H]1C=C[C@H](OC(C)=O)[C@H](COC(C)=O)O1)C2
54	18µM*	?	COc1ccc2[nH]cc(CCNc3nc(-c4ccc(N(C)C)cc4)nc4ccccc34)c2c1
55	21%	0.3[11.7 µM]	O=C1[C@@H]2[C@H]3[C@H](O)[C@H](O)C/C(=N/OC[C@@H](O)COCc4ccco4)[C@@H]3CC[C@H]2C(=O)N1c1ccc(F)cc1F
56	14%	-1.9	COC(=O)[C@@]1(Cc2ccccc2)[C@H]2c3cc(C(=O)N(C)C)n(Cc4c(CO)[nH]cc(C)c4=O)c3C[C@H]2CN1C(=O)c1ccccc1

An excerpt from the list above, as a working copy:
cpd	Sfp inh	Menin MLL FP FL	Structure
49	9%	3.4	NC(CSCC(=O)O)C(=O)O (stereo unspecified)
50	24%	-0.3[11.7 µM]	CO[C@H]1COC(=O)[C@@H](CCSC)NC(=O)C/C=C\[C@@H](C)COC(=O)[C@@H](OCc2ccccc2)/C=C\[C@@H]1C
51	?	-0.6[94.6 µM]	Cc1ccc(C2CC(=O)Oc3ccc(O)cc32)cc1 (stereo unspecified)

Continuation.
cpd	Sfp inh	Menin MLL FP FL	Structure
57	17%	2.9[11.7 µM]	C[C@H]1Cc2c(-c3ccccc3)nc3c(c2CO1)CN(C(=O)Nc1cccc(C#N)c1)CC3
58	35%[activator]	28	COc1cccc(Nc2ncc3nc(CCc4ccccc4)c(=O)n(Cc4cccs4)c3n2)c1
59	25µM*	10	COC(=O)[C@@]1(Cc2ccc(OC)cc2)[C@H]2c3cc(C(=O)N(C)C)n(Cc4ccc(C)o4)c3C[C@H]2CN1C(=O)c1ccccc1
60	2%	-0.4	CCOC(=O)C1=C(c2ccccc2)c2cc(OC)ccc2OC1C(=O)OCC (stereo unspecified)
61	7%	-0.8[11.7 µM]	CC[C@@H](c1ccccc1)n1c(=O)n2n(c1=O)[C@H]1[C@H](O)[C@H]3O[C@@H]3/C(=N/OC/C=C(\C)CCC=C(C)C)[C@@H]1CC2
62	14%	-5.6	COC(=O)N1CCC2(CC1)CN(C(=O)Nc1ccccc1)C2
63	10%	0.2	Cc1cnc(CNc2nc(-c3cccc(NS(C)(=O)=O)c3)nc3ccccc23)cn1
64	1%	1.5	CCC1=C2CC[C@H]3C(=O)N(c4ccccc4)C(=O)[C@H]3[C@H]2[C@@]2(Cc3ccccc3)C(=NCCOC)OC(=O)N2C1=O
65	?	1.1	CC(=O)NCCNc1ncncc1-c1ccccc1C
66	9%	-0.1	COc1cc2c(cc1OC)CC(=O)N(CCCN(C)C[C@H]1Cc3cc(OC)c(OC)cc31)CC2
67	13%	0.3	O=C(O)CCC(=O)OC[C@@H](NC(=O)C(Cl)Cl)C(O)c1ccc([N+](=O)[O-])cc1 (stereo partly specified)
68	3%	0.5	C=C1CCC2C(CC2(C)C)C(=O)CCC1O (stereo unspecified)
69	11%	-15	NC(=O)CCCCC1CCSS1 (stereo unspecified)
70	10%&0%	0.8&11	COC(=O)CCC(=O)OC1(C)C(=O)C=C2C=C(c3ccc(C#N)cc3)OC=C2C1=O (stereo unspecified)
71	23%	?	C[C@@]12CCc3occc3[C@H]1CC[C@@]13C[C@@H](CC[C@H]12)[C@@](O)(CO)C3
72	16%	0.4	O=P(O)(O)O[C@@H]1[C@H](O)[C@H](O)[C@@H](OP(=O)(O)O)[C@H](OP(=O)(O)O)[C@H]1O
73	-8%	0.3	CN(C)c1cc(-c2cccc(NS(C)(=O)=O)c2)ncn1
74	-6%	-3.0	CC(C)C[C@@H](CC(=O)N[C@@H](CCC(=O)O)CC(=O)O)NC(=O)[C@@H]1CNCC[C@H]1NC(=O)C[C@@H](NC(=O)C[C@H](Cc1ccccc1)NC(=O)[C@@H]1CCCC[C@H]1N)C(C)C
75	-1%	-0.9	CC1=CC23C(=O)C(C=C(CO)[C@@H](O)[C@]2(O)[C@H]1O)[C@H]1[C@@H](C[C@H]3C)C1(C)C (stereo partly specified)
76	24%	0.4	CC(C)(C)NC(=O)C(c1ccc(I)cc1)N(CCN1CCOCC1)C(=O)CCCNC(=O)c1ccccc1 (stereo unspecified)
77	0%	7.1[11.7 µM]	CO/N=C1/c2cc(OC)ccc2O[C@@H](c2cccc(OC)c2)[C@H]1O
78	16%	-2.0[11.7 µM]	COc1ccc(O[C@H]2C=C[C@@H](c3ccccc3)O[C@H]2COC(=O)CC/C(C)=N\OC[C@@H](O)[C@H]2O[C@H]3OC(C)(C)O[C@H]3[C@@H]2O)cc1
79	11%	-17	COCC(=O)N1CCC[C@@]2(CCN(c3ccccc3)C2)C1
80	-1%	-2.8	COC(=O)N1CCC[C@@]2(CCN(c3ccccc3)C2)C1
81	?	17	O=C(O)COc1cccc(-c2ocnc2-c2nc(-c3ccccc3)c(-c3ccccc3)o2)c1
